eIF4H FP inh = human eIF4H binding inhibitors, primary screen, translation initiation inhibitor project, biochemical, uHTS, fluorescence polarization; Eukaryotic translation initiation factor 4H (Homo sapiens), Q15056; eIF4H fluorescence polarization binding assay; inhibition, % at 35 µM; 290,000 compounds, 0.94% hits; AID 2012, 2009;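 active = 50% or more with normal probe brightness, or confirmed in later tests; inconclusive = above 50% with abnormal brightness, or retests that disagree; inactive = below 50% or failed in later tests; about a fifth of its hits are not listed in these tables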;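 also: calls also rest on retests at 20 µM and on dose response follow-up; 0% = protein and probe with vehicle and 100% = probe without protein; strong numbers were not always called active; many hits fall short of the cut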
PABP FP inh = PABP poly(A) RNA binding inhibitors, primary screen, biochemical, fluorescence polarization, uHTS | Polyadenylate-binding protein 1 (Homo sapiens), P11940 | inhibition, % at 35 µM | 290,000 compounds, 1% hits;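 active = 50% or more with normal probe brightness, or confirmed in later tests; inconclusive = above 50% with abnormal brightness, or retests that disagree; inactive = below 50% or failed in later tests; about a fifth of its hits are not listed in these tables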;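 also: calls also rest on retests at 20 µM and on dose response follow-up; controls were probe without protein and protein plus probe with vehicle; some compounds called inactive have numbers as strong as hits; many hits fall short of the cut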
Env fusion inh = inhibitors of HIV-1 Env-driven cell-cell fusion, primary screen, HeLa-JRFL effector, CEM21 target cells, luciferase; inhibition, % at 12.3 µM; 360,000 compounds, 1.1% hits; AID 651610, 2012;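 active = mean replicate inhibition score of at least 50 and every replicate individually at or above 50; inconclusive = only one of the two criteria met; inactive = mean below 50 and not all replicates reaching 50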;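 also: 0% = plate neutral controls and 100% = maraviroc near 300 nM; one replicate is shown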
UUG fidelity = modulators of yeast start codon fidelity, primary screen, whole organism, S. cerevisiae, single point, plate reader | S. cerevisiae UUG-firefly luciferase reporter, luminescence/redox ratio | activity score, % at 18.7 µM | 350,000 compounds, 0.13% hits;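 active = replicate mean at a twofold rise or more, about +100% in these data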;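 also: firefly luciferase made from a UUG start codon reports start codon fidelity; reporter light over untreated wells divided by growth signal over untreated wells; some hits fall short of that in this replicate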
CSC inhib = cancer stem cell viability inhibitors, primary screen, luminescence; cancer stem cell-like cells viability; inhibition, % at 7.5 µM; 300,000 compounds, 1.1% hits; AID 2717, 2010;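 active = mean at 75% or more and at least half the replicates too; inconclusive = mean and replicates disagree; tested in HMLE shEcad cells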;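 also: 0% = median of negative and 100% = median of positive control wells; the first replicate is given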
MT1-MMP act inh = blockers of MT1-MMP proenzyme processing, primary screen, HT1080 RFP-PRO-GFP cells, GFP/RFP fluorescence. AID 651647, 2012. GFP/RFP ratio fluorescence, overnight; percent of plate control window, DMSO zero. GFP/RFP ratio change, % at 20 µM. 360,000 compounds, 0.061% hits;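 active = GFP/RFP ratio change of at least 30% with cell ATP level not reduced by more than half and red fluorescence within 50% of control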; also: strong numbers were not always called active
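Assay system: HT1080 RFP-PRO-GFP cells | Dosing: 20 µM single dose, 1% DMSO | Incubation: Cells overnight before dosing, compound overnight, 37 °C, 5% CO2 | Evaluation: GFP/RFP fluorescence ratio | Control set: DMSO-only wells and HT1080 RFP-L50D-GFP cell wells as references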
Rce1 inh = yeast Rce1p protease inhibitors, primary screen, biochemical, fluorescence, cell-free homogeneous; calls only; CAAX prenyl protease 2 (Saccharomyces cerevisiae (strain ATCC 204508 / S288c)), Q03530; AID 2563, 2010; 290,000 compounds, 0.27% hits; yeast membranes, quenched prenylated peptide cleavage fluorescence;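 active = fall in fluorescence gain of 50% or more versus controls, with final raw signal at or below 3038400; inconclusive = same 50% fall but final raw signal above 3038400; inactive = fall in fluorescence gain under 50%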;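 also: plate controls were neutral control wells for no effect and wells lacking membranes for full effect; tested at 10 µM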
Target sequence (Q03530 whole entry, looked up): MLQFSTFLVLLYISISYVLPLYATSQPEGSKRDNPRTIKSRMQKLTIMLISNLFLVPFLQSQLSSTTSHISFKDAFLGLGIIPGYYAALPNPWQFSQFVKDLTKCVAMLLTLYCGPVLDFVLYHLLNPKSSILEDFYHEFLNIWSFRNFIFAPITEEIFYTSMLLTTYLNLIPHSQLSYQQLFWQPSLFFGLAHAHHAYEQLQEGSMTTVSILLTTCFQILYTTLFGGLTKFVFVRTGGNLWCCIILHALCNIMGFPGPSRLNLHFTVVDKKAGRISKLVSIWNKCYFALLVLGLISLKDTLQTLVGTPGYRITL
eIF4H FP inh retest = also measured in eIF4H FP inh; calls as there; inhibition, %; compound at 20 µM; confirmation average;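 mean of two retest wells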
PABP FP inh retest = recorded beside PABP FP inh, whose call it bears; inhibition, %; compound at 20 µM; confirmation repeats;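 mean of two retest wells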
MT1-MMP act inh RFP = also measured in MT1-MMP act inh; calls as there; RFP signal change, %; measured here: RFP expression control read;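 0 = vehicle wells; hits needed this value within 50% of zero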
An asterisk follows results filed as active; i = inactive; ? = inconclusive; / = no result given. A portion of the library. The share of hits here may be higher or lower than overall.

SMILES	eIF4H FP inh	PABP FP inh	Env fusion inh	UUG fidelity	CSC inhib	MT1-MMP act inh	MT1-MMP act inh RFP	Rce1 inh	others
CC1CCc2sc(C(=O)N3CCC(C(N)=O)CC3)cc2C1 (stereo not drawn)	/	/	/	-16.1	-1.0	3.7	1.2	/
CCOC(=O)c1ccc(Nc2nnc(C(C)(C)C)c(=O)[nH]2)cc1	-3.4	-3.1	20.8	2.4	8.3	/	/	i
COc1ccc(C(C[N+](=O)[O-])c2c(C)cc3ccccn23)cc1 (stereo not drawn)	40.3	3.7	-12.7	-15.2	-1.4	-4.1	-4.9	i
COCCNC(=S)Nc1ccc(Cl)c(Cl)c1	-2.7	-4.7	-8.2	/	-8.8	-0.4	0.0	i
N#Cc1c(Cl)nc(SCc2ccccc2)nc1-c1ccccc1	-2.7	5.7	/	/	46.1	/	/	/
COc1cc(C(=O)Nc2nc(C)c(Cc3ccc4c(c3)OCO4)s2)cc(OC)c1OC	-1.0	1.0	-18.2	-4.1	56.3	-8.7	-18.6	i
Cc1onc(-c2ccccc2)c1C(=O)Nc1sc2c(c1C#N)CCC2	27.5	29.2	66.5*	-19.0	/	-20.9	-14.3	i
CN=C(Nc1ccccc1OC)SC1CC(=O)N(c2ccc(C(=O)OC)cc2)C1=O (stereo not drawn)	-1.1	6.0	/	0.0	1.6	5.4	3.4	i
CC1CN(C(=O)COC(=O)c2ccc(O)cc2)CC(C)O1 (stereo not drawn)	10.4	13.8	-1.7	-8.4	-9.6	-1.0	3.7	i
Cn1cnc([N+](=O)[O-])c1S(=O)(=O)c1ccc(Cl)cc1	4.1	-3.2	24.9	/	/	1.8	2.8	i
O=C(C1CC(=O)N(c2ccc(Cl)cc2)C1)N1CCC(c2nc3ccccc3[nH]2)CC1 (stereo not drawn)	/	/	/	0.3	7.9	3.1	-0.8	i
COC(=O)Cc1ccc(N(Cc2ccccc2F)S(=O)(=O)c2ccc(Br)cc2)cc1	-3.0	2.4	15.0	/	11.8	-2.4	-12.2	i
Cc1cnc(NC(=O)CSc2nnc(C)s2)s1	-13.0	-3.8	36.3	-19.8	-9.3	0.8	5.4	i
Cc1csc(N)n1	-6.9	-5.5	/	-18.1	-10.7	-0.9	0.4	i
CC(C)=CCCC(C)NC(=O)NC1CCCCC1 (stereo not drawn)	-6.9	-7.0	/	-10.5	0.0	-5.1	-1.5	i
Cc1cc(Cl)ccc1-c1nc(NCCN(C)C)nc2ccsc12	/	/	-8.9	-5.8	/	-4.5	-1.4	/
COc1ccc2cc(C(=O)C3CCCN(C(=O)CSc4nnc(C)o4)C3)ccc2c1 (stereo not drawn)	0.5	-1.9	13.2	/	-2.9	4.6	-9.2	i
OCCC1CN(Cc2cnc(-c3ccccc3)s2)CCN1C1CCCC1 (stereo not drawn)	1.9	3.8	-10.1	/	37.3	1.4	-4.0	i
O=C(Nc1cc(C(F)(F)F)ccc1N1CCOCC1)C1Cc2ccccc2CN1C(=O)c1ccco1 (stereo not drawn)	12.9	32.5	35.9	1.7	-10.1	0.6	1.0	i
COC(=O)c1cc(Cl)nc2ccccc12	1.7	12.0	9.0	-14.9	-15.6	0.0	0.5	i
Cc1ccc(NC(=O)CSCc2c(C)noc2C)cc1C	1.1	-7.3	/	-21.7	-0.6	-1.6	-1.5	i
Cc1ccc(CC(=O)NNC(=O)c2cccs2)cc1C	/	/	10.0	-2.8	/	-1.0	3.3	/
CC1CCCC(NS(=O)(=O)c2cc(Br)cnc2N)C1C (stereo not drawn)	/	/	2.6	-8.3	-9.1	-4.7	-0.1	i
COc1ccc(N2CC(C(=O)Nc3nc4ccccc4s3)CC2=O)cc1 (stereo not drawn)	12.3	0.4	18.7	5.3	-8.9	-6.1	-4.2	i
COc1ccc(C(=O)Nc2ccc(NC(=O)C3CC3)cn2)cc1	-9.1	-3.7	-5.3	4.4	0.9	3.8	1.9	i

Among those listed so far, these have a cyano group.
SMILES	eIF4H FP inh	PABP FP inh	Env fusion inh	UUG fidelity	CSC inhib	MT1-MMP act inh	MT1-MMP act inh RFP	Rce1 inh	others
N#Cc1c(Cl)nc(SCc2ccccc2)nc1-c1ccccc1	-2.7	5.7	/	/	46.1	/	/	/
Cc1onc(-c2ccccc2)c1C(=O)Nc1sc2c(c1C#N)CCC2	27.5	29.2	66.5*	-19.0	/	-20.9	-14.3	i

Other records.
SMILES	eIF4H FP inh	PABP FP inh	Env fusion inh	UUG fidelity	CSC inhib	MT1-MMP act inh	MT1-MMP act inh RFP	Rce1 inh	others
O=C(Nc1ccc(NC(=O)c2ccco2)cc1)c1ccc2c(c1)OCCO2	3.7	-11.5	20.3	-21.7	-2.6	4.3	1.0	i
COc1ccc(-c2sc3ccc(N4CCOCC4)cc3c2-c2ccc(O)cc2)cc1	/	/	8.3	-7.0	64.4	-2.3	-2.7	/
COc1cc(C(C(=O)NC2CCCC2)N(Cc2ccco2)C(=O)c2snc(C(N)=O)c2N)cc(OC)c1OC (stereo not drawn)	-14.1	0.6	2.2	-3.2	-10.9	1.9	3.5	i
O=[N+]([O-])c1ccc(Cl)c(/C=N/N2CCN(Cc3ccccc3Cl)CC2)c1	-11.7	-4.0	/	-2.3	22.8	1.3	-3.0	i
CCOc1ccc(NC(=O)C2C(c3ccccc3)C2(Cl)Cl)cc1 (stereo not drawn)	5.8	5.1	-81.9	-11.1	26.4	5.5	-4.0	i
NC(=O)NCC(c1ccccc1)C1CCCCC1 (stereo not drawn)	10.5	16.0	10.4	0.7	-15.5	-0.3	-2.0	i
CCOC(=O)CC(=O)CSc1nc2nc(C)cc(C)n2n1	-0.9	3.3	3.7	-4.0	-2.4	4.3	2.4	i
O=C1c2ccccc2C(=O)N1CCC(=O)N1CCCc2ccccc21	5.6	0.4	/	11.9	2.3	0.9	1.4	i
COc1ccc(NC(=O)c2ccco2)cc1NC(=O)c1ccc(C#N)cc1F	-9.1	-1.3	8.4	0.0	-1.7	-1.7	-1.6	i
O=C(C(=O)N1CCN(c2ccccc2F)CC1)c1c[nH]c2ccccc12	-0.8	-3.7	-57.8	/	0.5	5.2	1.2	i
CC1CCCCC1NC(=O)COC(=O)c1ccc(S(=O)(=O)NCc2ccco2)cc1 (stereo not drawn)	39.1	17.2	10.7	-11.5	-18.7	4.3	1.5	i
C=CC[C@H](CC(=O)OC(C)(C)C)C(=O)OC[C@H]1CCCN1C(=O)[C@@H](CC=C)CC(=O)N(CCO)Cc1ccccc1	/	/	-19.8	-11.4	/	3.9	-0.2	/
COc1cccc(C(=O)NC(=O)Nc2cc(C)on2)c1	34.3	-8.4	-20.5	-1.4	0.7	-0.6	-3.7	i
N#CC(C#N)=Cc1ccccc1OCc1ccccc1	-8.6	-6.1	/	/	17.4	/	/	i
O=C(c1ccc(Cl)s1)N1CCCC(N2CCN(c3ccc(F)cc3)CC2)C1 (stereo not drawn)	-1.1	-18.7	0.4	-21.3	3.8	2.5	-7.7	i
CCCCC[n+]1ccn(-c2nc3ccccc3nc2[N-]S(=O)(=O)c2ccccc2)c1	-8.6	5.8	-9.1	13.8	2.5	1.7	0.1	i
Cc1cccc(NC(=S)N/N=C/c2cccc([N+](=O)[O-])c2)c1	-3.2	-11.9	/	-31.1	1.3	5.3	-3.4	i
O=C(Nc1nnc(SCc2ccc(Cl)cc2Cl)s1)C1COc2ccccc2O1 (stereo not drawn)	3.5	-4.2	-17.6	-19.5	46.0	-3.9	-6.4	/
COc1cc(Cl)c(C)cc1NC(=O)c1ccc(NS(=O)(=O)c2ccc(F)c(F)c2)cc1	-2.7	-3.2	-12.2	/	20.0	/	/	i
O=C(CN1C(=O)NC2(CCCC2)C1=O)Nc1nc(-c2ccccc2)cs1	/	/	/	-5.6	2.4	3.9	0.8	/
Cc1noc(C)c1COC(=O)COc1cccc2c1OC(C)(C)C2	-1.6	-2.0	/	-15.3	8.6	-2.4	-3.6	i
Cc1cc(OCC[N+]2(C)CCCCC2)nc2ccccc12	-1.2	71.7	/	-5.0	/	0.4	17.5	i	eIF4H FP inh retest=-1.2;PABP FP inh retest=10.3
CCN1CCc2nc3ccccc3c(C(=O)Nc3ccc(F)cc3)c2C1	15.0	6.7	8.5	-8.4	-3.3	-6.6	2.6	i
COc1ccc(C(=O)c2ccc([N+](=O)[O-])cc2)cc1S(=O)(=O)N1CCC(C(=O)O)CC1	-3.9	4.6	-8.2	6.9	-28.8	-0.9	3.4	i
O=C(c1cccc(C(=O)N2CCN(c3ncccn3)CC2)c1)N1CCN(c2ncccn2)CC1	-11.9	1.1	/	-2.2	-2.2	5.9	5.7	i

The list goes on, overlapping the part above by three compounds.
SMILES	eIF4H FP inh	PABP FP inh	Env fusion inh	UUG fidelity	CSC inhib	MT1-MMP act inh	MT1-MMP act inh RFP	Rce1 inh	others
CCN1CCc2nc3ccccc3c(C(=O)Nc3ccc(F)cc3)c2C1	15.0	6.7	8.5	-8.4	-3.3	-6.6	2.6	i
COc1ccc(C(=O)c2ccc([N+](=O)[O-])cc2)cc1S(=O)(=O)N1CCC(C(=O)O)CC1	-3.9	4.6	-8.2	6.9	-28.8	-0.9	3.4	i
O=C(c1cccc(C(=O)N2CCN(c3ncccn3)CC2)c1)N1CCN(c2ncccn2)CC1	-11.9	1.1	/	-2.2	-2.2	5.9	5.7	i
O=C1Cc2ccccc2Sc2ccc(Cl)cc21	-6.4	1.8	/	-11.7	14.8	1.1	2.9	i
COc1ccc(OC)c(C=Cc2ccc([N+](=O)[O-])cc2)c1	/	/	-16.0	-12.4	/	-5.6	-0.9	/
CC(=O)Nc1ccccc1OC(=O)N1CCOCC1	-8.1	7.6	/	-18.2	4.3	5.1	3.7	i
CC(=O)N(CC(=O)Nc1sc(C)c(C)c1C(N)=O)Cc1ccccc1	0.7	-2.4	10.7	/	1.1	5.0	7.8	i
Cc1nc2ccccn2c1C(=O)NCC(C)C	-6.9	1.4	13.3	/	-4.7	-2.7	3.5	i
O=C(c1cc(-c2ccc(F)cc2)on1)N1CCCc2ccccc21	-16.1	-12.1	-10.4	-6.3	-12.2	0.3	-2.2	i
COc1ccc(CCNC(=O)CCc2cc(OC)c(OC)c(OC)c2)cc1	-10.8	-5.7	?	-1.7	-0.1	4.0	8.5	i
CCOC(=O)C1CCN(C(=O)Cn2nc(C)n3cccc3c2=O)CC1	-11.7	0.5	-4.4	23.3	11.3	0.4	1.8	i
CCCCN(C)CCCNC(=O)c1ccc2c(c1)NC(=O)C(N1CCOCC1)S2 (stereo not drawn)	1.4	9.9	/	16.2	-5.1	4.5	15.9	/
CCCCCCCCC(=O)N1CCN(c2cc3c(cc2F)c(=O)c(C(=O)O)cn3CC)CC1	5.6	4.8	1.8	-13.4	-12.3	-6.9	-18.2	i
O=C(Nc1ccc(N2CCOCC2)c(Cl)c1)C1CCCCC1	1.4	-15.4	-79.2	-8.3	-15.4	1.3	4.1	i
Cc1cc(Br)c(NC(=O)CN(C)CCOc2ccccc2)c(Br)c1	-7.9	2.6	-1.8	/	11.8	-2.5	-4.2	i
